# MOR-DOR ag = OPRM1-OPRD1 heterodimerization agonism | cells, luminescence | activation, % at 9.3 µM | hit rate 0.3% among 340,000 | AID 504326; in the data active means activation above about 18%;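 further: 0% = vehicle-treated cells and 100% = reference agonist; values of inactives mirror those of a sister screen read the other way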
# Target sequence (P35372 whole entry, looked up): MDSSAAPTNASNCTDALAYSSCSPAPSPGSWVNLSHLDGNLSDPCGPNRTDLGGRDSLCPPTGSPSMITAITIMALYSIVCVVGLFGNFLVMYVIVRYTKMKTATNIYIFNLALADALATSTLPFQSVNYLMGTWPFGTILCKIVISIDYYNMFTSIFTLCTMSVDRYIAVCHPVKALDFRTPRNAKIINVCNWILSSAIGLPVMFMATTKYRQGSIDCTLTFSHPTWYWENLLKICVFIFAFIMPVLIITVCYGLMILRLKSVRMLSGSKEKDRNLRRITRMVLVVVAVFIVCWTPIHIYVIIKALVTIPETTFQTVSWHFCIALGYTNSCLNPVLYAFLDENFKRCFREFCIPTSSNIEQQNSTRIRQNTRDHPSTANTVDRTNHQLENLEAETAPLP
# Target sequence (P41143 whole entry, looked up): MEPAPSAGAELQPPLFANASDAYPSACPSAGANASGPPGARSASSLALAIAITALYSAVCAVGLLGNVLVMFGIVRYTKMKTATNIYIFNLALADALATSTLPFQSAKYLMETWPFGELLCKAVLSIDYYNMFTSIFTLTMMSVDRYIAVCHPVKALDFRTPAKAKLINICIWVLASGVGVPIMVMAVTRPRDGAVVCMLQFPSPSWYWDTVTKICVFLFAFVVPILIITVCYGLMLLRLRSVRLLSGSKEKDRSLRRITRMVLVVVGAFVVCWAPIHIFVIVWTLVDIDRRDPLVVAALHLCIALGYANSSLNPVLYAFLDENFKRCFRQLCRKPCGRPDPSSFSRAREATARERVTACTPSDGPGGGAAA
# PfHsp90 set2 = reduces growth (ATP signal) of yeast expressing P. falciparum Hsp90. S. cerevisiae expressing PfHsp90, BacTiter-Glo ATP, 48 h; yeast lacking PDR1 and PDR3 efflux regulators. inhibition, % at 9.4 µM. hit rate 0.32% among 310,000;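 active means every replicate shows inhibition above about 80%, whatever the replicate mean, limit read from the data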;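 further: 0% = DMSO neutral controls and 100% = 20 µM radicicol positive controls; yeast relying on Plasmodium falciparum Hsp90 in place of its own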
# Tat export inh = blocks Tat-dependent protein export in E. coli | E. coli MC4100 TorA-mCherry Tat export, fluorescence | inhibition, % at 10 µM | hit rate 0.036% among 340,000 | AID 488895;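 active means mean replicate inhibition at least 50% and at least half of replicates individually reaching 50%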;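 further: exported cargo escapes ClpAP degradation while cytoplasmic cargo is degraded and loses fluorescence; 0% = median of neutral control wells and 100% = median of NaSCN control wells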
# PKA-R2B act = PKA-R2B complex activation. P22694+P31323. PKA-R2B holoenzyme dissociation, Cy5-IP20 fluorescence polarization; R2B truncated from residue 108, S112A mutant; 0% DMSO only, 100% 113 µM cGMP. activation, % at 11.4 µM. hit rate 0.079% among 340,000. AID 504700;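 active means activation above a cutoff set at the mean over all compounds plus 3 SD, cut at about 18% in these data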;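 further: higher means more holoenzyme dissociation and a rise in polarization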
# SUMO Mot1 rescue = SUMOylation pathway inhibition by Mot1-301 growth rescue; hit rate 1% among 320,000; AID 2716; S. cerevisiae Mot1-301 growth rescue, ATP luminescence, 38.5C; percent above DMSO median, 100 means doubled; growth rescue, % at 18.8 µM;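 active means every valid replicate shows activation above 250% relative to neutral control wells; inactive means the rest, any valid replicate at or below 250%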;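 further: OY570 slx delta 5 strain wells were the positive control but not used for scaling; some compounds called inactive have numbers as strong as hits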
# PKA-R1A activ = activators of PKA-R1A complex; P00514+P68181; PKA-R1A dissociation, Cy5-IP20 fluorescence polarization; scaled: DMSO 0%, 113 µM cGMP 100%; activation, % at 11.4 µM; hit rate 0.083% among 340,000; AID 504707;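 active means percent activation above the mean of all tested compounds plus 3 SD, cut at about 19% in these data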;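 further: higher means more PKAc released from R1A so a rise in polarization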
# HTR5A inv ctr = counter-screen for OPRM1-OPRD1 inverse agonists: human HTR5A inverse agonism. HTR5A cell line, luminescence. hit rate 0.083% among 340,000. P47898. AID 504634. inhibition, % at 9.3 µM; in the data active means inhibition mostly above about 23%, no sharp cut-off; inactive means mostly below about 18%;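 further: 0% = cells with DMSO and 100% = no-cell wells with DMSO; some compounds called inactive have numbers as strong as hits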
# MOR-DOR inv ag = inverse agonists of human mu-delta opioid receptor heterodimerization | cell-based MOR-DOR heterodimer luminescence, inverse agonism | P35372+P41143 | inhibition, % at 9.3 µM | hit rate 0.21% among 340,000; in the data active means inhibition above about 22%, passing the limit was not always enough;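 further: 0% = cells with DMSO and 100% = wells without cells with DMSO; values of inactives mirror those of a sister screen read the other way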
# * hit, by the source's call.
No. | Molecule | MOR-DOR ag | PfHsp90 set2 | Tat export inh | PKA-R2B act
1 | Nc1c2c(nn1-c1ccc(C(=O)O)cc1)CNC2 | 0.5 | -1 | 9 | 7
2 | CSc1nnc(NC(=O)c2nc(S(=O)(=O)Cc3ccccc3F)ncc2Cl)s1 | 2.0 | 9 | -10 | 10
3 | Cc1cc(OC(C)C(=O)NCCCN2CCOCC2)c2c(C)c(C)c(=O)oc2c1 (configuration not stated) | -1.0 | -9 | -7 | 0
4 | Cc1nn(C)cc1C(C(=O)NC1CCCCC1)N(C(=O)c1cnccn1)c1ccc(Oc2ccccc2)cc1 (configuration not stated) | 0.7 | -4 | 3 | 7
5 | NC(=O)NCC(=O)N1CCN(S(=O)(=O)c2ccc(Cl)s2)CC1 | -1.1 | 4 | -3 | 7
6 | Cc1ccc(NC(=O)CCC(=O)NNC(=S)Nc2ccc(F)cc2F)cc1C | -1.6 | -30 | 0 | 10
7 | Cc1csc(SCC(=O)NC2CCC(C)CC2)n1 (configuration not stated) | 5.6 | -36 | 12 | -3
8 | O=C(Nc1cccc(F)c1)c1ccc2c(c1)OCCO2 | 0.0 | 5 | 7 | 6

No. | SUMO Mot1 rescue | PKA-R1A activ | HTR5A inv ctr | MOR-DOR inv ag
1 | 91 | 5 | 0 | -2
2 | 58 | -9 | 2 | -10
3 | -2 | -8 | -9 | 6
4 | -6 | 0 | -1 | -3
5 | -17 | 6 | 8 | 4
6 | -25 | 10 | 5 | 9
7 | 555 | 11 | -9 | -36
8 | 479* | 1 | -24 | 0

# Fetched by structure from the entries so far (three):
No. | Molecule | MOR-DOR ag | PfHsp90 set2 | Tat export inh | PKA-R2B act
3 | Cc1cc(OC(C)C(=O)NCCCN2CCOCC2)c2c(C)c(C)c(=O)oc2c1 (configuration not stated) | -1.0 | -9 | -7 | 0
6 | Cc1ccc(NC(=O)CCC(=O)NNC(=S)Nc2ccc(F)cc2F)cc1C | -1.6 | -30 | 0 | 10
2 | CSc1nnc(NC(=O)c2nc(S(=O)(=O)Cc3ccccc3F)ncc2Cl)s1 | 2.0 | 9 | -10 | 10

No. | SUMO Mot1 rescue | PKA-R1A activ | HTR5A inv ctr | MOR-DOR inv ag
3 | -2 | -8 | -9 | 6
6 | -25 | 10 | 5 | 9
2 | 58 | -9 | 2 | -10

# Sorted by length of the SMILES (rising): part of the list above
No. | Molecule | MOR-DOR ag | PfHsp90 set2 | Tat export inh | PKA-R2B act
1 | Nc1c2c(nn1-c1ccc(C(=O)O)cc1)CNC2 | 0.5 | -1 | 9 | 7
6 | Cc1ccc(NC(=O)CCC(=O)NNC(=S)Nc2ccc(F)cc2F)cc1C | -1.6 | -30 | 0 | 10
2 | CSc1nnc(NC(=O)c2nc(S(=O)(=O)Cc3ccccc3F)ncc2Cl)s1 | 2.0 | 9 | -10 | 10
3 | Cc1cc(OC(C)C(=O)NCCCN2CCOCC2)c2c(C)c(C)c(=O)oc2c1 (configuration not stated) | -1.0 | -9 | -7 | 0

No. | SUMO Mot1 rescue | PKA-R1A activ | HTR5A inv ctr | MOR-DOR inv ag
1 | 91 | 5 | 0 | -2
6 | -25 | 10 | 5 | 9
2 | 58 | -9 | 2 | -10
3 | -2 | -8 | -9 | 6

# Source: PubChem BioAssay

# The list is partial. The share of hits here may be higher or lower than overall.
